# Assay outcomes as filed in PubChem.
# KCNQ2 enhance: potentiators of rat KCNQ2 potassium channel | Potassium voltage-gated channel subfamily KQT member 2 (Rattus norvegicus), O88943 | CHO-K1 KCNQ2, FluxOR thallium flux fluorescence; active compounds read high | B-score at 10 µM | 310,000 compounds, 0.54% hits;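 active means fluorescence ratio B-score at least 3 SD of library B-scores, with initial fluorescence B-score within 3 SD, cut at about 5.3 in these data; same plate scores as AID 2156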;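 further: B-score of peak minus minimum over baseline fluorescence ratio after K+ and Tl+ stimulus; positive B-score means potentiation of KCNQ2 with more thallium influx and brighter signal; only the inactives scoring about 0 or higher are listed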
# Target sequence (O88943 whole entry, looked up): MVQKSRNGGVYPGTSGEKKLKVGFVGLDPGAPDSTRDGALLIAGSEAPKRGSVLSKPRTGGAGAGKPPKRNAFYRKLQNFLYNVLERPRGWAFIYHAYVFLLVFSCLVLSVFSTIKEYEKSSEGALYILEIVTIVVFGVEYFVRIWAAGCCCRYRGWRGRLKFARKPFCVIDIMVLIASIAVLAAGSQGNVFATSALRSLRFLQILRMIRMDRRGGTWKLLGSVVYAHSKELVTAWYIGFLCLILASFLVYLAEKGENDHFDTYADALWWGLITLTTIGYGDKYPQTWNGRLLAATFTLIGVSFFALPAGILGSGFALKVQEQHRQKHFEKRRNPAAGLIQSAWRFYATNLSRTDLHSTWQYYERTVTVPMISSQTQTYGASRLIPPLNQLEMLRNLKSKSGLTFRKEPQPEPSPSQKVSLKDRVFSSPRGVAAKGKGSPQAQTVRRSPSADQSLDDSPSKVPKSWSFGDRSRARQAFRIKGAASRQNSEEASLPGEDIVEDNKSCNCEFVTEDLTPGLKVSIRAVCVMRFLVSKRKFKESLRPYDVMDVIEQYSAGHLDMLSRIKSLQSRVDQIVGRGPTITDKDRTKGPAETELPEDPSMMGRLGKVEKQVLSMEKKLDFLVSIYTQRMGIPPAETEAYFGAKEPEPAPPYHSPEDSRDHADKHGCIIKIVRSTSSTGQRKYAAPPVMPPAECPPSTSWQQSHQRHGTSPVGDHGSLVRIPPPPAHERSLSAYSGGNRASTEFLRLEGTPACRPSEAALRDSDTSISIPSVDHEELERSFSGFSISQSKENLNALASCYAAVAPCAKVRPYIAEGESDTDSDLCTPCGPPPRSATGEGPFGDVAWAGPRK
# KCNQ2 enhance baseline: also measured in KCNQ2 enhance; calls as there; B-score; compound at 10 µM; measured here: initial fluorescence intensity artifact check;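 brightness before thallium and not channel activity; 0 = typical well and far values either way flag optical interference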
# Starred values were filed as active, the others as inactive. A portion of the library. The share of hits here may be higher or lower than overall.
nr	structure	KCNQ2 enhance baseline	KCNQ2 enhance
1	COc1cc2[nH]c(=O)n(Cc3ccc(C(=O)NC4CCN(Cc5ccccc5)CC4)cc3)c(=O)c2cc1OC	0.31	0.26
2	Cc1ccc(NC(=S)c2ccc(N(C)C)cc2)cc1	0.04	0.2
3	O=S(=O)(NCc1ccncc1)c1ccc(S(=O)(=O)NCC2CCCO2)cc1 (centres undefined)	0.08	0.84
4	O=C(NC1CCCCC1)C(c1ccncc1)N(CC1CCCO1)C(=O)C(F)(F)F (centres undefined)	-0.11	0.88
5	CCCCc1ccc(N=N/C(C(=O)Nc2cc(OC)c(NC(C)=O)cc2OC)=C(/C)O)cc1	-1.61	0.03
6	O=C(/C=C/c1ccc2c(c1)OCO2)NC1CCCC1	-0.05	0.03
7	CN(C)c1ccc(/C=N/NC(=O)CNC(=O)/C=C/c2ccccc2)cc1	-2.42	0.18
8	CCCCN(CC)Cc1ccc(CNC(=O)Nc2ccc(OCC)cc2)o1	-0.34	0.53
9	COC(=O)C1=C(C)NC(C)=C(C(=O)OC)C1c1ccc2ccccc2n1	1	0.81
10	CCCCNc1oc(-c2ccc(OC)cc2)nc1S(=O)(=O)c1ccccc1	-1.8	0.16
11	CC(NC(=O)Cn1cnc([N+](=O)[O-])n1)c1ccccc1 (centres undefined)	-0.02	0.22
12	COc1ccc(CNC(=O)C2CCCN2CCc2ccccc2)cc1OC (centres undefined)	-0.48	0.04
13	CC(C)(CCO)Nc1ncnc2onc(-c3ccc(F)cc3)c12	2.04	1.41
14	Cc1nnc(NC(=O)CN2C(=O)c3ccccc3S2(=O)=O)s1	-3.21	0.14
15	Cc1ccccc1CS(=O)(=O)CC(O)CN1CCCC1=O (centres undefined)	0.35	1.35
16	COC(C[C@H](O)C[C@@H](O)[C@@H](C)OCc1ccccc1)OC	-0.11	0.61
17	O=C(c1cc(COc2ccc(F)cc2F)on1)N1CC[C@@H]2CCCC[C@H]2C1	-1.46	0.14
18	CCn1c(SCC(=O)c2ccccc2)nnc1-c1cnccn1	0.66	0.02
19	CCOC(=O)Cn1c(=NC(=O)c2ccc([N+](=O)[O-])s2)sc2ccccc21	3.1	0.01
20	O=C(C1CC(=O)N(c2ccccc2)C1)N1CCN(c2ccccc2F)CC1 (centres undefined)	0.36	0.33

# The list goes on, overlapping the part above by four compounds.
nr	structure	KCNQ2 enhance baseline	KCNQ2 enhance
17	O=C(c1cc(COc2ccc(F)cc2F)on1)N1CC[C@@H]2CCCC[C@H]2C1	-1.46	0.14
18	CCn1c(SCC(=O)c2ccccc2)nnc1-c1cnccn1	0.66	0.02
19	CCOC(=O)Cn1c(=NC(=O)c2ccc([N+](=O)[O-])s2)sc2ccccc21	3.1	0.01
20	O=C(C1CC(=O)N(c2ccccc2)C1)N1CCN(c2ccccc2F)CC1 (centres undefined)	0.36	0.33
21	Cc1ccc(SCC(=O)NC(=O)Nc2ccc3c(c2)OCCO3)cc1C	-2.1	0.9
22	COCCCNC(=O)CN(c1cccc(Cl)c1C)S(C)(=O)=O	-0.35	1.67
23	CS(=O)(=O)N1CC2CCCN2c2cc(C(F)(F)F)ccc21 (centres undefined)	-0.02	0.31
24	Cc1nc(NC(=O)c2ccco2)sc1C(=O)O	0.82	2.05
25	COc1cc(C)c(Br)cc1S(=O)(=O)NCc1ccccc1	2.15	0.65
26	Cc1c(C(=O)N(C)C(C)c2ccncn2)oc2c(F)cccc12 (centres undefined)	0.47	1.81
27	CC(C)(C)c1ccc2c(c1)N(CC(=O)N1CCOCC1)C(=O)CO2	0.1	0.81
28	O=C(CSc1nc(Nc2ccccc2)nc(N2CCOCC2)n1)Nc1cccc([N+](=O)[O-])c1	0.24	1.93
29	O=[N+]([O-])c1cc(-c2nnc(N3CCOCC3)c3ccccc23)ccc1N1CCOCC1	-1.89	0.23
30	COc1cccc(-c2cc(C(=O)Nc3c(C)nn(Cc4ccccc4)c3C)no2)c1	1.53	0.95
31	COc1cccc(-c2cc(C(=O)N3CCN(S(=O)(=O)c4ccccc4)CC3)[nH]n2)c1	0.83	1.06
32	COc1ccc(C(=O)NN=C2CCCC2)cc1	0	0.96
33	CCn1c(=O)c(=O)[nH]c2cc(C(=O)Nc3ccc(S(=O)(=O)N4CCCC4)cc3)ccc21	-1.82	0.79
34	COc1ccc(/C(C#N)=C/c2ccccn2)cc1	0.22	0.22
35	COC(=O)[C@@H]1C[C@H]1[C@@H](NS(=O)(=O)c1ccccc1)c1ccccc1	1.3	0.06
36	CCc1nnc(NC(=O)CSc2nc3ccccc3o2)s1	-0.61	2.44
37	CC(C)(CC(=O)O)CC(=O)N1CCN(c2nc3cc(Cl)ccc3s2)CC1	-0.03	1.52
38	CCC(C)(C)n1nnnc1C(c1cc2cc3c(cc2[nH]c1=O)OCO3)N1CCN(C)CC1 (centres undefined)	-2.94	0.07
39	Cc1nnc(SCc2nnc(-c3cccs3)o2)n1C1CCCCC1	0.51	0.21
40	O=C(CCC1CC(=O)Nc2ccccc21)NCc1ccc(F)cc1 (centres undefined)	0.21	0.3
41	O=C1/C(=C/c2ccsc2)N2CCC1CC2	0.15	0.43
42	CCC(=O)N=c1sc2ccccc2n1-c1ccccc1	-0.14	0.42
43	S=C1NCCNC(=S)NCCOCCOCCN1	-2.7	1.02
44	CCOC(=O)N1CCN(C(=O)c2ccc(N(Cc3ccc(Cl)cc3)S(C)(=O)=O)cc2)CC1	-1.63	1.96
45	Cn1c(=O)c2c(O)c(Cc3ccccc3)c(=O)n(C)c2n(C)c1=O	-1.71	0.02
46	Nc1cc(=O)[nH]c(N2CCN(c3ccccc3)CC2)n1	-2.82	0.51
47	COc1ccc(S(=O)(=O)Nc2ccc(Cc3ccncc3)cc2)cc1C	-2.07	0.49
48	Cc1ccc(CNC(=O)Cc2ccc(-n3c(=O)[nH]c4ccsc4c3=O)cc2)cc1	0.65	0.18
49	Cc1ccnc(NS(=O)(=O)c2ccc(NC(=O)COc3ccccc3)cc2)n1	2.53	0.43
50	Cc1ccc(S(=O)(=O)N2CCCCC2)cc1C(=O)c1nccn1C	-0.03	0.12
51	CCCCC[n+]1cccc2c3ccccc3ccc21	0.9	1.03
52	COc1ccc(N2CCN(C(=O)Cn3c(=O)[nH]c4ccsc4c3=O)CC2)cc1	-0.56	0.27
53	Oc1ccc(C(=S)N2CCCC2)cc1	-0.79	0.15
54	CC(Sc1n[nH]c(N)n1)C(=O)Nc1cccc(S(=O)(=O)N2CCOCC2)c1 (centres undefined)	0.12	0.76
55	O=[N+]([O-])c1cccc(S(=O)(=O)Nc2ccc(-c3ccc(N4CCCC4)nn3)cc2)c1	1.69	0.75
56	COc1cc(=O)[nH]c(SC(C)C(=O)Nc2cc(C)on2)n1 (centres undefined)	-0.2	1.72
57	CN(C)c1ccc(-c2n(C)c3ccccc3[n+]2C)cc1	-0.34	0.43
58	CCOc1ccc(NC(=O)C2CCN(S(=O)(=O)c3c(C)noc3C)CC2)cc1	-0.57	1.1
59	CCc1ccccc1N(CC(=O)O)S(C)(=O)=O	-2.04	3.62
60	Cc1ccc2[nH]c3c(c2c1)CN(C(=O)CN1CCCc2ccccc21)CC3	1.38	0.34
61	O=C(CSc1nnc(SCc2ccccc2Cl)s1)N/N=C/c1ccc(C(=O)O)cc1	0.18	0.91
62	CCCCN(CCCNC(=O)CN1C(=O)COc2ccc(S(=O)(=O)N3CCC(C)CC3)cc21)Cc1ccccc1	0.19	0.9
63	COc1ccc(C2(c3ccc(OC(C)=O)cc3OC(C)=O)CC(c3ccccc3)NC(=S)N2)cc1 (centres undefined)	-0.98	2.82
64	O=C(COc1ccccc1)N1CCN(C(=O)c2ccc([N+](=O)[O-])cc2)CC1	0.08	1.22
65	CC(=O)c1ccc(-c2ccc(Cn3c(C)nc4cc(N)c(C)nc43)cc2)cc1	-0.04	0.31
66	COc1ccc(CNC(=O)C(OC(=O)c2ccco2)c2ccccc2F)cc1 (centres undefined)	-0.18	0.21
67	Brc1ccc(-c2nc(-c3cccnc3)no2)o1	-0.51	0.03
68	Cc1nc2c(ccc3nc(NC(=O)c4ccc5c(c4)OCCO5)sc32)s1	-0.12	2.1
69	CCNc1nc(NCC)n2c(SC(C(=O)Nc3cc(Cl)cc(Cl)c3)c3ccccc3)nnc2n1 (centres undefined)	0.01	0.96
70	CC(=O)N1CCc2cc(S(=O)(=O)CCC(=O)NCCc3ccc(C)cc3)ccc21	1.53	0.33
71	COc1ccccc1-n1c(C)cc(C=O)c1C	0.63	0.22
72	CCCC1(C(=O)OC)NC(c2ccco2)C2C(=O)N(c3ccc(C)cc3)C(=O)C21 (centres undefined)	-0.07	0.73
73	c1ccc(-c2noc(-c3ccncc3)n2)nc1	0.6	0.32
74	CCn1c(=O)n(CC)c2cc(N3CCCC3)c(NC(=O)c3cc(Br)ccc3OC)cc21	-0.81	0.58
75	Cc1cc(C(=O)N(C)C2CCCCC2)no1	0.51	0.87
76	O=C(CCc1nc2ccccc2[nH]1)Nc1ccccc1F	0.6*	6.57*
77	COc1ccc(/C(C)=N/NC(=O)OC(C)(C)C)cc1[N+](=O)[O-]	-1.07	0.8
78	CCCCCCCC1=CC2=CC(=O)C(C)(OC(C)=O)C(=O)C2=CN1CCc1ccccc1 (centres undefined)	-1.61	0.14
79	O=C(c1ccncc1)N1CCN(c2ccc3ccccc3n2)CC1	4.03	3.96
80	CCOC(=O)c1c(C)nc2sc(C(N)=O)c(N)c2c1-c1ccc(OC)cc1	-0.08	0.58

# Entries by screen from the entries so far:
# Nos. 64 to 74 in KCNQ2 enhance baseline: 0.08, -0.04, -0.18, -0.51, -0.12, 0.01, 1.53, 0.63, -0.07, 0.6, -0.81
# Nos. 64 to 74 in KCNQ2 enhance: 1.22, 0.31, 0.21, 0.03, 2.1, 0.96, 0.33, 0.22, 0.73, 0.32, 0.58

# Next part
nr	structure	KCNQ2 enhance baseline	KCNQ2 enhance
81	CCCCCCCCS(=O)CCC(=O)O (centres undefined)	-1.17	0.01
82	N#C/C(=C\c1ccc(O)cc1)C(=O)N1CCCC1	2.21	1.01
83	Cc1cc(C)c2nc(SCC(=O)Nc3ccccc3N3CCOCC3)c(C#N)cc2c1	1.46	0.07
84	CCCCNC(=O)c1ccc(SCC(=O)N(CC)CC)c([N+](=O)[O-])c1	0.02	1.03
85	CC1CCN(c2nc3c(c(=O)[nH]c(=O)n3C)n2Cc2ccccc2)CC1	-1.68	1.04
86	O=C(O)c1cc2ccccc2c(N=Nc2cccnc2)c1O	1.28	2.23
87	CCOC(=O)C1CCN(S(=O)(=O)c2ccc(-c3ccccn3)s2)CC1	-0.44	1.29
88	CCC(C)NS(=O)(=O)c1ccc(OCC(=O)NCc2cccnc2)cc1 (centres undefined)	-0.6	1.56
89	Cc1ccc(NC(=O)C2CCCN2S(=O)(=O)c2ccc3c(c2)n(C)c(=O)c(=O)n3C)c(C)c1 (centres undefined)	-0.63	0.7
90	Cn1nc(C(F)(F)F)c(-c2cccc(C(F)(F)F)c2)c1NC(=O)c1ccco1	0.68	0.04
91	CC(=O)c1cc(CC=C(C)C)c(O)c(CC=C(C)C)c1O	-0.82	0.43
92	CNC(=O)CSc1nc2[nH]ncc2c(=O)[nH]1	-0.36	0.8
93	CC(=O)O/N=C(\N)Cc1ccc(-c2csnn2)cc1	0.61	0.84
94	Cc1nc2ccccc2n1CCC(=O)O	-0.72	0.83
95	Cc1ccc(C(=O)Nc2ccccc2NC(=O)c2ccc(C)o2)o1	-0.08	0.56
96	Cc1cnc(CN(C)C(=O)c2cc(COc3c(F)cccc3F)on2)[nH]1	-1.49	0.07
97	COc1ccc(-n2nc(C(=O)NCC(=O)NCc3ccccc3OC)c3ccccc3c2=O)cc1	0	1.38
98	N#Cc1ccccc1NC1=CC(=O)CCC1	0.02	0.21
99	Cn1c(Sc2ccc(C(F)(F)F)cc2[N+](=O)[O-])nnc1-c1ccccc1	0.03	1.05
100	O=C1NN(c2ccccc2)C(=O)/C1=C/c1ccc(-c2ccc(C(=O)O)cc2)o1	-0.3	1.03
101	CN(C)c1ccc(C2C3C(=O)N(c4ccc(C(=O)O)cc4)C(=O)C3ON2c2ccccc2)cc1 (centres undefined)	0.8	2.76
102	CCOc1ccc2nc(SCC(=O)NC3CCS(=O)(=O)C3)[nH]c2c1 (centres undefined)	-0.42	0.19
103	COc1ccc(-c2ccc([C@H]3[C@H]4C=CC[C@@H](C)[C@@H]4C(=O)N3Cc3ccccc3)c(F)c2)cc1C	1.14	1.43
104	CC(C)OC(=O)C1C(=O)CC(C)(O)C(C(=O)OC(C)C)C1c1ccccc1 (centres undefined)	-0.85	0.79
105	CC1=NN(C(=O)Cc2ccc(C)cc2)C(O)(c2cccnc2)C1 (centres undefined)	-0.44	1.91
106	CCCCC(=O)NS(=O)(=O)c1ccc(N=NN(CC)CC)cc1	-0.06	0.09
107	CC1(c2cc([N+](=O)[O-])cc([N+](=O)[O-])c2)CC(C)(C)N(C(=O)c2ccccc2)c2ccccc21 (centres undefined)	0.81	0.02
108	Cn1nc(C(=O)NC2CCCc3ccccc32)ccc1=O (centres undefined)	-1.59	0.76
109	CNC(=O)c1cc(NC(=O)CCn2nc(-c3ccccc3)c3ccccc3c2=O)ccc1OC	0.54	2.77
110	CCOC(=O)c1ccc(NC(=O)CNC(=O)c2ccco2)cc1	0.9	0.13
111	Cn1nnnc1SCC(=O)N1CCOCC1	0.2	0.4
112	COc1ccc(CCNC(=O)COc2ccc(-c3ccccc3)cc2)cc1OC	2.24	1.46
113	O=C(C1CCCCC1)N1CCC(O)(c2ccc(Cl)cc2)CC1	-0.49	1.95
114	CN(/N=C/C=C/c1ccccc1)C1=NS(=O)(=O)c2ccccc21	-0.63	0.09
115	CN(C)c1ccc(C(=O)OCC(=O)Nc2ccc(N3CCOCC3)cc2)cc1	-0.74	1.25
